BJeLR lethal: kills HRASV12-expressing BJeLR cells; 0.17% of 300,000 active; AID 1554; BJeLR (HRASV12) viability, CellTiter-Glo ATP luminescence, 48 h; reference of the scale not given here; inhibition, % (test concentration not listed);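 active = replicate mean above 50%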;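 note: 50 nL library stock added to about 25 µL; numbers are from one replicate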
PrP 5UTR inh: inhibition of PrP 5' UTR reporter expression; cell-based PrP 5' UTR mRNA reporter, plate reader; inhibition, % (no concentration beside the values); 0.35% of 340,000 active; AID 488862;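 active = every replicate at 50% or more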;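 note: 0 = median of the neutral control wells; tested in H4 reporter cells; numbers are from one replicate; inactives centre near -14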
Autofluor counter: compound fluorescence in toxin protease inhibitor counterscreen; compound autofluorescence counterscreen, microsphere flow cytometry; stronger effect = higher value; AID 624483; fluorescence intensity (test concentration not listed); 3.1% of 360,000 active;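 active = at least 3 SD above the mean of all compounds, about 16000 in these data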;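 note: 100 nL of 1 mM stock went into each well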
An asterisk follows results filed as active; . = not tested or not shown. Not all compounds are listed; the hit share may differ from the screen's.

SMILES	BJeLR lethal	PrP 5UTR inh	Autofluor counter
C[C@@H]1C[C@H]2[C@@H]3C[C@H](F)C4=CC(=O)C(Cl)=C[C@]4(C)[C@@]3(F)[C@@H](O)C[C@]2(C)[C@@]1(O)C(=O)CO	1.0	.	.
CC(=O)O[C@@]12CO[C@@H]1C[C@H](O)[C@@]1(C)C(=O)[C@H](O)C3=C(C)[C@@H](OC(=O)[C@H](O)[C@@H](NC(=O)OC(C)(C)C)c4ccccc4)C[C@](O)([C@@H](OC(=O)c4ccccc4)[C@H]21)C3(C)C	13.6	.	.
O=c1c(O[C@@H]2O[C@H](CO)C(O)C2O)c(-c2ccc(O)c(O)c2)oc2cc(O)cc(O)c12 (stereo not given in full)	.	6.0	4074
CC(=O)OCC(=O)C1(O)CCC2C3CCC4=CC(=O)C=CC4(C)C3(F)C(O)CC21C (stereo not given)	.	6.7	3634

Whole records as entered above. Values in the order: BJeLR lethal | PrP 5UTR inh | Autofluor counter
Results for O=c1c(O[C@@H]2O[C@H](CO)C(O)C2O)c(-c2ccc(O)c(O)c2)oc2cc(O)cc(O)c12 (stereo not given in full) : . | 6.0 | 4074
Results for C[C@@H]1C[C@H]2[C@@H]3C[C@H](F)C4=CC(=O)C(Cl)=C[C@]4(C)[C@@]3(F)[C@@H](O)C[C@]2(C)[C@@]1(O)C(=O)CO : 1.0 | . | .
